KCNQ2 pot: enhances the rat KCNQ2 potassium channel. O88943. CHO-K1 KCNQ2, FluxOR thallium flux fluorescence; active compounds read high. B-score at 10 µM. 0.54% of 310,000 active. AID 2239;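 active means fluorescence ratio B-score at least 3 SD of library B-scores, with initial fluorescence B-score within 3 SD, cut at about 5.3 in these data; same plate scores as AID 2156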;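 further: B-score of peak minus minimum over baseline fluorescence ratio after K+ and Tl+ stimulus; positive B-score means potentiation of KCNQ2 with more thallium influx and brighter signal; only the inactives scoring about 0 or higher are listed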
Target sequence (O88943 whole entry, looked up): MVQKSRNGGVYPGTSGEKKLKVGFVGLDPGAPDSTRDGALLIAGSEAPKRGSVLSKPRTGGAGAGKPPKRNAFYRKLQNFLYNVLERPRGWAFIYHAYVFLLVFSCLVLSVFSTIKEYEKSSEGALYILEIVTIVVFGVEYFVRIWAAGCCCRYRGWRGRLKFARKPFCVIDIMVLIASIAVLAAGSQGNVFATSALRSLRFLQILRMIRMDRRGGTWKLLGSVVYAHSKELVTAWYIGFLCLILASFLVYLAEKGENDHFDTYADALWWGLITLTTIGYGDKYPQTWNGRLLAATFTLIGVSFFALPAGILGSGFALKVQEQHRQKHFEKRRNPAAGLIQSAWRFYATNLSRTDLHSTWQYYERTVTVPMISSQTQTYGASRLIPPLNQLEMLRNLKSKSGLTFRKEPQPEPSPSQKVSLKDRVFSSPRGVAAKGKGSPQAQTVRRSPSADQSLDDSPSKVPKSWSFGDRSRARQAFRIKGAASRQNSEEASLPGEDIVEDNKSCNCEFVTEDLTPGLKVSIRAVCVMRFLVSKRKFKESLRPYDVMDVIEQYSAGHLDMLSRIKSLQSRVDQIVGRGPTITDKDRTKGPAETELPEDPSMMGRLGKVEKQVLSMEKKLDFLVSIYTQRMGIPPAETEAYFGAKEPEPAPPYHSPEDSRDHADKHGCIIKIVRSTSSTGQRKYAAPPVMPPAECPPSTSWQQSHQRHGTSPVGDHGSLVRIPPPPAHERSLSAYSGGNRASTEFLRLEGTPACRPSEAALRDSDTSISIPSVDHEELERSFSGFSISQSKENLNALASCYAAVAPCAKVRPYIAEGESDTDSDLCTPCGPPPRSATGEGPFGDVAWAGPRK
KCNQ2 pot baseline: also measured in KCNQ2 pot; calls as there; B-score; compound at 10 µM; measured here: initial fluorescence intensity artifact check;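 brightness before thallium and not channel activity; 0 = typical well and far values either way flag optical interference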
* hit, by the source's call.

The opening 2 entries, ahead of the listing:
KCNQ2 pot,KCNQ2 pot baseline,SMILES
1.55,-1.79,O=C(c1ccccn1)N1CCCC(N2CCN(c3cccc(C(F)(F)F)c3)CC2)C1 (stereo not given)
0.05,0.41,CC(C)N1C(=O)S/C(=C/c2ccc3c(c2)n(C)c(=O)n3C)C1=O

The listing, from the start:
KCNQ2 pot,KCNQ2 pot baseline,SMILES
1.55,-1.79,O=C(c1ccccn1)N1CCCC(N2CCN(c3cccc(C(F)(F)F)c3)CC2)C1 (stereo not given)
0.05,0.41,CC(C)N1C(=O)S/C(=C/c2ccc3c(c2)n(C)c(=O)n3C)C1=O
1.06,-0.03,Cc1c(NC(=O)CSc2nnnn2C)c(=O)n(-c2ccccc2)n1C
0.47,-1.75,N#Cc1cc2c([nH]c1=S)CCCC2
3.93,0.87,C/C(=N\Nc1cccc(C(=O)O)c1)c1ccc2c(c1)Nc1ccccc1S2
0.64,-1.5,COc1cc(OC)c(NC(=O)CN(C)S(=O)(=O)c2ccc(-c3ccc(=O)[nH]n3)s2)cc1Cl
0.51,2.2,CS(=O)(=O)c1ccc(Cl)c(NC(=O)C2CC(=O)N(c3ccc4c(c3)OCCO4)C2)c1 (stereo not given)
0.16,-1.56,O=C1N[C@@H](Cc2ccccc2)C(=O)N2[C@@H]3N(S(=O)(=O)c4ccc(F)cc4)c4ccccc4[C@]3(Br)C[C@@H]12
0.18,-0.95,OC(CNCC1CCCCC1)COc1ccccc1 (stereo not given)
0.2,-0.16,Cc1cc(-c2nnc3n2N=C(c2ccccc2Br)CS3)n[nH]1
0.03,-0.13,CCOC(=O)N1CCN(C(=O)c2cc(S(=O)(=O)N3CCc4ccccc43)ccc2OC)CC1
0.75,0.58,CC1CCc2sc(C(=O)NN=C3CCC(c4ccccc4)CC3)cc2C1 (stereo not given)
0.28,1.78,C=CCNc1nc(NCc2ccco2)nc(OCC)n1
0.27,0.13,CCOc1ccc(NC(=O)C2(c3ccc(OC)c(OC)c3)CCCC2)cc1
1.85,0.36,CCn1c(SCC(=O)c2ccc3ccccc3c2)nnc1-c1ccco1
1.51,-1.89,Cc1cccc2nc(Cn3c(=O)n(CCCC(=O)NCc4ccco4)c(=O)c4ccccc43)cc(=O)n12
0.43,-1.07,O=C(c1ccc2c(Cl)c3c(nc2c1)CCCC3)N1CCC(N2CCCCC2)CC1
0.42,-0.61,COc1ccccc1N1CCN(C(=O)c2cc(C(=O)N3CCN(c4ccccc4OC)CC3)cc([N+](=O)[O-])c2)CC1
0.51,-0.14,CCOC(=O)C1CCCN(C(=O)Cc2ccc(OC)c(OC)c2)C1 (stereo not given)
0.71,1.47,O=C(O)CCSc1ccc([N+](=O)[O-])cc1[N+](=O)[O-]
1.51,0.53,Cc1cccc(-c2cc(=O)c(C(=O)O)cn2-c2ccc(F)cc2F)c1
0.68,1.73,Cc1ccc2c(c1)N(CC(=O)NCc1cccs1)C(=O)C(C)O2 (stereo not given)
0.74,-1.87,CC1CC(=O)C2=C(C1)Nc1ccccc1SC2c1ccc(F)cc1 (stereo not given)
0.34,3.04,CNC(=S)N(CCCn1ccnc1)Cc1c(F)cccc1Cl
0.99,-3.36,CC(C)n1nnnc1SCC(=O)NC1CCCC1
1.68,-2.36,COC(=O)c1ccc(OCC(O)CN2CCN(C(=O)c3ccco3)CC2)cc1 (stereo not given)
0.3,-0.02,Cc1cccc(OC(C)c2ccnc3nc(/N=C/N(C)C)nn23)c1 (stereo not given)
0.87,0.05,CCc1nc(N=C(N)N)nc2ccccc12
0.47,2.13,CCCC1CC(C(=O)NC(C(C)Cl)C2OC(SC)C(O)C(O)C2O)N(C)C1 (stereo not given)
0.04,-0.7,Cn1c(=O)c2c(nc(N3CCN(c4ccc([N+](=O)[O-])cc4)CC3)n2C)n(C)c1=O
1.11,0.61,Nc1nc2n(n1)C(c1cccc(Br)c1)CC(c1ccccc1)N2 (stereo not given)
0.02,-0.63,O=C(O)c1n[nH]c2c1CCCCC2
0.49,0.75,CCOC(=O)N1CCC(N2C(=O)c3ccc(C(=O)O)cc3C2=O)CC1
1.35,-2.04,CS(=O)(=O)c1ccc(C(=O)OCC(=O)Nc2cccc(S(=O)(=O)N3CCCC3)c2)cc1
1.3,-0.62,CN(C)c1nc(NCc2ccccc2)nc(SCC(N)=O)n1
0.02,-1,COc1ccc(-c2csc(NC(=O)c3ccc(OCC(=O)N4CCOCC4)c(OC)c3)n2)cc1
0.41,-1.02,O=C(O)c1ccc(OCCCCCCOC2CCCCO2)cc1 (stereo not given)
0.51,0.02,CS(=O)(=O)N(CC(=O)NCC1CCCO1)c1cc(Cl)cc(Cl)c1 (stereo not given)
1.4,0.07,CS(=O)(=O)c1ccc(N)cc1
0.37,-1.49,CCN(CC)C(=O)CSc1nnc2sc3ccccc3n12
0.87,-0.48,O=C(NNc1nc(-c2ccc(Cl)cc2)cs1)c1ccco1
1.13,-0.15,O=C(NCc1cccs1)c1cnc2ccccn2c1=O
1.12,0.26,COc1cc(CC(=O)OCC(=O)N2CC(=O)Nc3ccccc32)cc(OC)c1OC
0.21,-0.04,CCOC(=O)C(C(=O)OCC)C(Nc1ccccc1)c1ccccc1 (stereo not given)
0.67,-0.39,COCc1cc(C)nc(SCc2ccc(F)cc2)c1C#N

Ordered by the number under KCNQ2 pot (descending): 3 of the compounds above.
KCNQ2 pot,KCNQ2 pot baseline,SMILES
1.13,-0.15,O=C(NCc1cccs1)c1cnc2ccccn2c1=O
0.51,0.02,CS(=O)(=O)N(CC(=O)NCC1CCCO1)c1cc(Cl)cc(Cl)c1 (stereo not given)
0.49,0.75,CCOC(=O)N1CCC(N2C(=O)c3ccc(C(=O)O)cc3C2=O)CC1

Back to the main list; the two compounds before the break are reprinted first.
KCNQ2 pot,KCNQ2 pot baseline,SMILES
0.21,-0.04,CCOC(=O)C(C(=O)OCC)C(Nc1ccccc1)c1ccccc1 (stereo not given)
0.67,-0.39,COCc1cc(C)nc(SCc2ccc(F)cc2)c1C#N
0.54,1.21,NC(=O)c1nsc(C(=O)N(CC(=O)NCc2ccccc2)c2cccc(F)c2)c1N
11.1*,0.5*,Cc1[nH]c(-c2ccccn2)nc(=S)c1Cl
0.96,0.25,CC(C)(c1ccccc1)c1ccc(OCCN2CCOCC2)cc1
1.11,0.01,CC(NC(=O)c1ccccc1Cl)c1nnc(SCC(=O)Nc2ccc(C(=O)O)cc2)n1C (stereo not given)
1.07,-1.15,COc1ccc(CCNS(=O)(=O)c2ccc(C(=O)NCc3ccco3)cc2)cc1OC
1.14,1.49,O=C(Nc1ccc(-c2nc3cccnc3s2)cc1)C1CCCO1 (stereo not given)
0.38,-0.1,CCOc1c(Cl)cnn(-c2ccc(C)cc2)c1=O
1.04,-0.28,CCOc1ccc2[nH]c(=O)c(CN(CCN3CCCC3)C(=S)Nc3ccccc3OCC)cc2c1
1.14,-0.14,CCOC(=O)N1CCN(C(=O)C(=O)Nc2sc3c(c2C(=O)O)CC(C)(C)OC3)CC1
0.31,-0.89,Cc1nn(CC(N)=O)c(=O)c2ccccc12
0.85,-0.28,CN(C)S(=O)(=O)c1ccc(C(=O)NCc2nnc(SCC(=O)c3ccccc3)o2)cc1
0.1,-2.76,O=C(/C=C/c1ccccc1)OCC(=O)c1ccc[nH]1
1.82,-0.51,Cc1nc(Cl)sc1C(=O)Nc1cc(F)cc(F)c1
0.06,-0.01,Clc1ccc(-c2csc(N/N=C/c3ccco3)n2)cc1
0.97,0.92,Cc1ccc(S(=O)(=O)NCC(=O)N(CC2CCCO2)C(C(=O)NC2CCCC2)C(C)C)cc1 (stereo not given)
0.25,-0.33,COc1ccc(-c2cn3cccnc3n2)cc1NC(=O)C1CC1
0.44,0.11,COc1ccc(-c2cc(C(F)(F)F)n3ncc(C(=O)NCC4CCCO4)c3n2)cc1OC (stereo not given)
1.16,-1.18,COc1cccc(NC(=O)Cn2c3ccc(F)cc3c3nc4n(c(=O)c32)CCS4)c1
0.73,-0.53,O=C1Nc2ccccc2N(O)N1c1ccc(Cl)cc1
0.15,-0.07,CS(=O)(=O)c1ccc2nc(NC(=O)Oc3ccccc3)sc2c1
0.89,-0.85,Cc1cc(C)nc(SCc2ccc(C(=O)NNC(=O)Nc3cccc(Cl)c3)cc2)n1
0.61,0.06,O=C(COC(=O)CNC(=O)c1ccc(Cl)cc1Cl)NCc1ccco1
1.55,0.02,Cn1cc(S(=O)(=O)N2CCCC2)cc1C(=O)N1CCN(c2ccccc2)CC1
0.51,-0.41,COc1ccc(/C=N/NC(=O)c2cccc(C(F)(F)F)c2)cc1
0.56,-1.97,CCOc1ccc(S(=O)(=O)N2CCOCC2)cc1NC(=O)C1CCC1
1.25,2.63,c1ccc2c(-c3nc(C4CCCCC4)no3)cc(-c3ccncc3)nc2c1
1.11,-0.04,Cc1nc(N(C)C)c2sc(=S)n(C)c2n1
0.16,1.47,CCOC(=O)c1c(C)[nH]c(C)c1C(=O)COC(=O)C1CCCN1S(=O)(=O)c1ccccc1F (stereo not given)
0.15,-0.26,Cc1onc(-c2ccccc2Cl)c1C(=O)Nc1cccc(-c2nc3ncccn3c2C)c1
0.61,0.86,CCc1c(C)nc2[nH]nc(-c3ccccc3C)n2c1=O

Whole records as entered above.
`CCc1nc(N=C(N)N)nc2ccccc12` is listed as KCNQ2 pot = 0.87; KCNQ2 pot baseline = 0.05
`COc1ccccc1N1CCN(C(=O)c2cc(C(=O)N3CCN(c4ccccc4OC)CC3)cc([N+](=O)[O-])c2)CC1` is listed as KCNQ2 pot = 0.42; KCNQ2 pot baseline = -0.61

Going on with the list.
KCNQ2 pot,KCNQ2 pot baseline,SMILES
0.47,-0.83,COc1ccc(C(=O)N=C2CCC(C#N)=C3c4cc(OC)c(OC)cc4CCN23)cc1
0.38,-1.5,O=C(NCc1cccnc1)C(=O)Nc1ccc2c(c1)OCO2
0.6,-1.78,NC(=NCCc1ccc(Cl)cc1)NS(=O)(=O)c1ccc(F)cc1
0.99,0.97,CCCCCCCC(=O)N/N=C/c1ccc(Br)cc1
0.82,2.18,CC1CN(C(=S)NC(=O)c2ccc(Cl)cc2)CC(C)O1 (stereo not given)
0.67,-0.01,CC(=O)c1cccc(NC(=O)CSc2nc(=O)n(CCN3CCOCC3)c3c2CCCC3)c1
0.06,-0.57,NCCSc1c(-c2ccccc2)[nH]c2ccccc12
1.21,-1.22,Cc1ccc(C(=O)NNC(=O)c2ccc(NC(=O)C(C)(C)C)cc2)cc1
0.1,0.44,COCCn1c(SCC(=O)Nc2ccccc2)nc2c(oc3ccccc32)c1=O
0.09,-1.09,Cc1ccc(NC(=O)CSc2nnc(Cc3ccccc3)o2)cc1
1.17,1.76,Cc1cccc(OCC(=O)Nc2cccc(C(=O)NCC(C)C)c2)c1
0.61,-2.01,Cc1cccc2c(N=Nc3ccc(S(=O)(=O)Nc4cccc(Cl)c4)cc3[N+](=O)[O-])c(O)[nH]c12
0.1,1.23,CCC1S/C(=N/N=C/c2ccco2)N(c2ccc(F)cc2)C1=O (stereo not given)
0.58,-1.33,O=C(NCc1cccs1)c1ccc([N+](=O)[O-])cc1Cl
0.65,3.01,Cc1sc2nc(CN3CCN(S(=O)(=O)c4cccc5nonc45)CC3)[nH]c(=O)c2c1C
0.72,-2.71,Cc1ccc(C(=O)N/N=C\c2ccc([N+](=O)[O-])s2)cn1
1.54,0.79,COc1ccc(OCCSc2ncnc3nc[nH]c23)cc1
0.35,-0.9,Cc1ccn(CCC(=O)N2CCCC(CCC(=O)NCc3ccc(F)c(F)c3)C2)n1 (stereo not given)
1.18,0.99,CCOc1cccc(C(=O)NC(=S)NCc2cccnc2)c1
0.64,-0.01,CC(=O)Nc1cccc(Oc2cc(C#N)c(C#N)cc2N2CCOCC2)c1
0.02,-0.21,O=C(COC(=O)c1cccc(Oc2ccccc2)c1)NCc1ccco1
0.52,1.13,O=C(CCC(=O)c1cccs1)NCc1cccnc1
1.21,-0.12,CC(C)[C@H](NC(=O)[C@@H]1CSC2c3ccccc3C(=O)N21)C(=O)NC1CCCCC1 (stereo not given in full)
0.16,-0.26,CN(CC(=O)NCc1ccc(F)cc1)S(=O)(=O)c1ccc2c(c1)n(C)c(=O)c(=O)n2C
0.16,0,CC(C)C(O)(C#CCN1CCCCC1)c1ccccc1 (stereo not given)
0.21,0.83,Cc1ccccc1CN1CCN(CC(=O)NCCCN2CCN(c3ccc(F)cc3)CC2)C1=O
0.52,1.35,c1ccc(NNC2=NCCS2)cc1
0.03,-1.42,CCc1noc(C)c1C(=O)N(C)CC(=O)Nc1ccc(OC)cc1
0.92,0.58,Cc1[nH]n(-c2ccccc2)c(=O)c1C=Nc1cccc2cccnc12
0.32,-0.07,Cc1ccc(-n2c(C)nc3ncnc(-c4ccccc4)c32)cc1
0.11,-0.32,COc1ccc(S(=O)(=O)N(CC(=O)NC2CC2)c2ccc(C)cc2)cc1OC
2.79,-2.63,COc1ccc(OC)c(/C=N/Nc2nncn2/N=C/c2cc(OC)ccc2OC)c1
0.01,0.03,O=C1CC(=O)Nc2cc(S(=O)(=O)Nc3ccc(Cl)c(C(F)(F)F)c3)ccc2N1

This is a subset; the hit share may differ from the screen's.
